Beta cell apopt: beta cell apoptosis inhibition | 300,000 tested, 0.8% active | protection from apoptosis, % (concentration not given with the values) | INS-1E cytokine-induced death, ATP luminescence, 48 h; percent of positive-control rescue, neutral wells zero | AID 435005;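 active means all replicates at 75% or more, or half of them and the mean; inconclusive means half reach 75% but not the mean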;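 further: 0% = cytokine-treated negative control wells and 100% = positive control rescue; higher means more ATP so stronger rescue from cytokine killing; wells of about 40 µL received 100 nL stock; the first replicate is given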
AF4-AF9 inh: blocks AF4 peptide binding to human AF9; inhibition, % at 10 µM; 350,000 tested, 0.47% active; AID 651704; AlphaScreen, biotin-AF4 peptide binding to FLAG-AF9;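 active means every replicate reaching a set inhibition limit, whatever the replicate mean, cut at about 25% in these data; inconclusive means mean inhibition reaches that limit but some replicates miss it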;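 further: 0% = plate neutral control median and 100% = total signal loss; the record names both 10 and 1 µM as test concentration; the first replicate is given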
Target sequence (P42568 whole entry, looked up): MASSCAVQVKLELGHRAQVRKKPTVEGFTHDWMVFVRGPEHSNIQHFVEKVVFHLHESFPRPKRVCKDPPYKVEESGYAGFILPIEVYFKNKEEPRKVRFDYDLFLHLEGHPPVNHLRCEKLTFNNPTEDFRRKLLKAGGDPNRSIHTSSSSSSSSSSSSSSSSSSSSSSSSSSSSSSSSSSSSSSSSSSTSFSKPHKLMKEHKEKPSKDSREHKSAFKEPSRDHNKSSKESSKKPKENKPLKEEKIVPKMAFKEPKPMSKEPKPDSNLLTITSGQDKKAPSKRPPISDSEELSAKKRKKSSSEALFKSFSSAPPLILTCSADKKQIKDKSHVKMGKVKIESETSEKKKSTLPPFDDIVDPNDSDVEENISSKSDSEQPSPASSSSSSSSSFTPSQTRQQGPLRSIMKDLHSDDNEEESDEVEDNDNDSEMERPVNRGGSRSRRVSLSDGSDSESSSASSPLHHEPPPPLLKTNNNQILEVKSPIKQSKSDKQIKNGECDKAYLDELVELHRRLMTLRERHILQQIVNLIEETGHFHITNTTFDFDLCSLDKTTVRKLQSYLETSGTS
Calb FLC: C. albicans growth modulation with fluconazole. C. albicans CaCi-2 (fluconazole-resistant clinical isolate) + fluconazole, Alamar Blue growth, 48 h. growth inhibition, % (concentration not given with the values). 300,000 tested, 0.57% active;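 active means most replicates above 75%; inconclusive means exactly half above 75%; inactive means most below 75%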;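 further: all wells also contain fluconazole at 8 µg/ml as a sub-toxic cotreatment; 0% = median of DMSO wells and 100% = median of geldanamycin control wells; wells of about 8 µL received 7.5 nL stock; the first replicate is given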
RanGTP-Imp inh: inhibitors of RanGTP-importin-beta interaction, primary screen, biochemical, FRET, CFP-Ran, YFP-importin-beta, homogeneous | cell-free CFP-Ran/YFP-importin-beta FRET ratio | AID 2216 | inhibition, % (no concentration beside the values) | 300,000 tested, 1.1% active;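 active means most replicates above 15%; inconclusive means exactly half above 15%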;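 further: 0% = DMSO wells and 100% = Ran loaded with GDP instead of GTP; wells of about 40 µL received 100 nL stock; the first replicate is given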
A1 inh: inhibitors of the anti-apoptotic protein A1, read as caspase activation; caspase activation, % (concentration not given with the values); AID 2462; MEF A1-2A-BIM cells, Caspase-Glo 3/7 luminescence, 3 h; percent of clofoctol response, vehicle zero; 330,000 tested, 0.066% active;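 active means over half of replicate activation scores above 10%, or exactly half above 10 with the replicate mean above 10; inconclusive means replicate mean below 10 yet half the replicates above 10; inactive means over half of replicates below 10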;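 further: wells of about 30 µL received 50 nL stock; many hits fall short of the cut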
Vif TR-FRET: inhibitors of Vif binding to APOBEC3G peptide, primary screen, biochemical, TR-FRET, GST-Vif 1-94, biotin-A3G peptide, dose response retest (AID 1117319) | TR-FRET GST-Vif / biotin-A3G peptide binding; higher % means a stronger effect; test concentration not given here; strong numbers were not always called active | inhibition, %; hits with a dose series show IC50 in µM | 260,000 tested, 0.57% active;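 active means above the screen mean plus three standard deviations and confirmed in dose response; inconclusive means results disagree or hit not tested in dose response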;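 further: Vif residues 1-94 fused to GST binding biotinylated APOBEC3G peptide 110-148; 0% = full assay without inhibitor and 100% = GST in place of GST-Vif; retest series ran down from 100 µM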
LANA-H2A inh: blocks KSHV LANA binding to histone H2A/H2B; cell-free LANA-H2A/H2B peptide, fluorescence polarization; inhibition, % (no concentration beside the values); 320,000 tested, 0.6% active; in the data active means inhibition mostly above about 10%, no sharp cut-off; inactive means mostly below about 6.7%;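 further: stock transfer was 7.5 nL into about 10 µL; 0% = median of vehicle wells and 100% = median of positive control wells; one replicate is shown; the record names a cut of 25% in any replicate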
T cruzi inh: T. cruzi replication inhibition; T. cruzi beta-gal in NIH3T3, luminescence, 90 h; inhibition, % (concentration not given with the values); 300,000 tested, 1.4% active;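 active means mean inhibition across valid replicates above about 55%, limit read from the data; inconclusive means mean below that limit but half or more replicates reach it; inactive means mean below it, under half of replicates reach it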;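 further: signal also drops with host cell toxicity which is not excluded here; 0% = plate median of DMSO wells and 100% = zero luminescence signal; higher percent means less beta-gal luminescence so fewer parasites; stock transfer was 50 nL into about 50 µL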
An asterisk follows results filed as active; u = inconclusive; x = no result given.

SMILES	Beta cell apopt	AF4-AF9 inh	Calb FLC	RanGTP-Imp inh	A1 inh	Vif TR-FRET	LANA-H2A inh	T cruzi inh
CCOC(=O)c1cc(NC(=O)COC)ccc1O	-9	x	-6	-5.3	0.3	u	5.7	5
Cc1cccnc1NC(=S)NC(=O)/C=C/c1ccco1	-1	x	-1	-5.4	-0.4	u	3.6	-3
CC(C)c1nc(NCCN2CCOCC2)c(C#N)c2c1COC(C)(C)C2	11	x	-1	-0.8	0.8	-5%	-0.3	27
CCC(C)(C)n1nnnc1CN1CCN(c2ccc(OC)cc2)CC1	-4	3.0	-16	0.7	0.3	-4%	-1.9	-4
CN(C(=O)c1cccs1)c1ccc(OCC(=O)Nc2ccc(C(=O)O)cc2)cc1	-1	1.1	-7	-0.7	0.1	2%	1.7	0
CC(=O)N1CCN(c2ccccc2NC(=O)c2cccs2)CC1	-7	2.4	2	u	-0.6	-7%	0.0	-1
CCN(CC)S(=O)(=O)c1ccc2c(c1)c(=O)c(C(=O)N1CCN(c3ccccn3)CC1)cn2C	-1	3.2	-1	3.2	0.0	-2%	1.0	7
Cc1ccc(S(=O)(=O)N2CCCCC2C(=O)N2CCN(C)CC2)cc1 (stereo not given)	-4	x	-17	3.2	-0.2	0%	0.8	10
Cc1cc(C(=O)CCC(=O)N2CCN(c3ccccc3)CC2)c(C)s1	2	0.8	-3	-3.3	0.7	0%	1.5	6
COc1ccccc1CNC(=O)COC(=O)c1cccc(-n2cnnn2)c1	-4	1.6	x	x	-0.3	3%	-4.1	x
CC(C)(O)c1[nH]c2cc(C(F)(F)F)ccc2c1C(C)(C)O	3	1.4	-21	2.1	0.4	x	2.4	-4
CC(Sc1cccc2cccc(C(=O)O)c12)C(=O)O (stereo not given)	x	x	-3	7.4	-0.6	3%	-3.5	-7
O=C(c1cnc2ccccn2c1=O)N1CCc2ccccc21	-1	-10	-4	-4.0	0.3	16%	-2.5	-8
COc1cc(C)c(CNC2CCCCC2)cc1C	-2	x	-18	-1.4	0.2	-2%	-0.1	-19
Cc1cc(C(=O)N/N=C/c2ccc(O)c([N+](=O)[O-])c2)c(C)n1-c1ccc(F)cc1	2	x	13	u	-0.7	x	3.6	7
O=C(O)CSc1nc2ccccc2n1C1CCCCC1	-2	-3.7	24	2.6	0.4	-5%	-1.2	-8
CCOC(=O)c1ccc(N2CCCCC2)c(NS(=O)(=O)c2cccc(C(F)(F)F)c2)c1	11	-2.4	-4	1.2	0.8	-3%	-1.7	40
CCN(c1cccc(C)c1)S(=O)(=O)c1ccc2c(c1)CCN2C(C)=O	-2	x	9	-0.6	0.2	-3%	1.9	9
CCCCNC(=O)C(NS(=O)(=O)c1cccc2nsnc12)c1ccccc1 (stereo not given)	x	x	-19	-4.6	0.6	28%	-0.8	10
O=C(NC1CCCC1)C(c1ccsc1)N(C(=O)Cc1cccs1)c1ccccc1 (stereo not given)	-2	-3.1	-9	-2.3	-0.3	0%	-0.3	22
CCOC(=O)c1csc(CCNC(=O)c2oc3c(Cl)cc(C)cc3c2C)n1	-4	0.1	3	1.7	-0.3	-15%	-1.2	-6
COc1ccc(-c2cc(-c3ccccc3)c(C#N)c(S(C)(=O)=O)n2)cc1	-1	x	x	9.7	-0.7	-1%	2.6	20
CCn1c(Sc2ccc(N)cc2Cl)nc2ccccc21	-4	x	-38	6.2	-0.1	9%	-0.6	1
Fc1cccc(CNc2ncnc3ccc(-c4ccc5c(c4)OCO5)cc23)c1	7	1.9	x	x	-1.0	x	0.3	x
OCCC1CN(Cc2cccs2)CCN1Cc1ccccc1 (stereo not given)	-7	-5.6	8	u	1.0	2%	3.0	2
(cont.)
SMILES	Beta cell apopt	AF4-AF9 inh	Calb FLC	RanGTP-Imp inh	A1 inh	Vif TR-FRET	LANA-H2A inh	T cruzi inh
O=C(O)COc1ccccc1/C=C1\SC(=S)N(c2cccnc2)C1=O	-1	-11	-2	0.6	0.2	x	0.2	3
CCC(=O)N(Cc1ccco1)c1nc(-c2ccccc2)cs1	2	x	20	u	0.1	-5%	1.3	16
COCCn1c(SCC(=O)Nc2cccc(C)c2)nnc1C(C)C	0	x	3	-1.7	0.8	-1%	0.7	1
COc1ccc(C(=O)CSc2nnc(CNc3ccc(F)cc3)o2)cc1	-9	-1.6	-8	2.4	-0.2	-8%	4.5	5
COc1ccc(NC(=O)CN2C(=O)C(=O)N(C3CCCC3)C2=O)c(OC)c1	1	4.7	x	x	1.1	x	-5.4	x
COc1ccccc1OCC(=O)OCC(=O)NCCN1C(=O)CSC1=O	-6	x	8	1.5	0.6	26%	-8.2	5
Cn1c(=O)cc(OCCCC(=O)Nc2ccccn2)c2ccccc21	-24	x	-13	-5.7	0.2	-1%	-0.1	5
CCc1ccc(OCCNC(=O)OCc2ccccc2)cc1	-11	x	-6	-0.8	0.2	-6%	1.1	-8
CSCCC(NS(=O)(=O)c1ccc2c(c1)oc(=O)n2C)C(=O)NC1CCCCC1 (stereo not given)	0	3.3	2	-0.1	-0.2	5%	5.8	-4
COc1ccc(OC)c(C2c3[nH]c4ccccc4c3C[C@H]3C(=O)N(C4CC4)CC(=O)N23)c1 (stereo not given in full)	1	2.3	2	3.2	-0.7	1%	0.6	-1
Nc1ccccc1Oc1c(F)c(F)c(Oc2ccccc2N)c(F)c1F	-4	-1.0	7	-2.2	0.2	32%	-1.1	-2
N#Cc1c2n(c(=S)n(-c3ccc(F)cc3)c1=O)CCCCC2	-2	-2.8	4	5.1	0.5	-3%	0.0	-7
CCCCCCCCc1nnc(N)s1	-4	-3.7	29	4.3	-0.1	3%	-1.4	3
CCCCNC(=O)CNC(=S)N(Cc1ccccc1)Cc1cccs1	9	-1.3	-26	1.0	0.1	12%	2.7	0
Cc1c(C)c2ccc(OCC(=O)NCCCn3ccnc3)cc2oc1=O	-3	0.9	0	0.1	0.1	x	2.2	-1
COc1ccc(OCCC(=O)OCC(=O)NC2CCCCCCC2)cc1	0	3.0	-18	0.4	-0.7	16%	-1.0	-8
O=C(N/N=C/c1cc(Cl)cc([N+](=O)[O-])c1O)c1ccc2c(c1)OCO2	22	4.4	-1	1.2	-0.1	x	2.2	57*
Cc1c(Cl)cccc1NC(=O)CSc1nncn1-c1cccnc1	0	-4.0	-7	4.2	-0.6	x	-4.7	14
CCN(CC)CCCNC(=O)C1c2cc(OC)c(OC)cc2C(=O)N(C)C1c1cccs1 (stereo not given)	-5	x	-7	-2.8	-0.2	7%	3.9	4
Cc1cc(C)n2nc(CC(=O)NCc3ccc(F)cc3)nc2n1	-4	x	-9	0.1	1.5	0%	-1.5	-11
Cc1noc(C)c1COc1ccc(C(=O)N2CCN(c3ccccn3)CC2)cc1	-11	-2.3	1	0.5	0.1	-1%	2.9	-2
Cc1ccc(S(=O)(=O)NCc2ccccc2C)cc1	0	-1.6	5	6.3	0.8	x	4.7	-6
COc1ccc(/C=N/Nc2ncccc2[N+](=O)[O-])c(OC)c1	-2	5.9	-6	1.4	-2.0	-4%	3.6	-16
N#Cc1c(NC(=O)COC(=O)c2nccnc2N)sc2c1CCCC2	3	-2.7	-7	7.0	0.4	10%	1.6	-8
Cc1ccc(NC(=O)C2CCCN2C(=O)NCc2ccccc2)cc1 (stereo not given)	-3	0.8	-1	2.5	0.8	6%	-0.5	-9
(next part)
SMILES	Beta cell apopt	AF4-AF9 inh	Calb FLC	RanGTP-Imp inh	A1 inh	Vif TR-FRET	LANA-H2A inh	T cruzi inh
O=C(COc1ccccc1F)NNC(=O)c1ccc(F)c(S(=O)(=O)N2CCOCC2)c1	-1	0.2	x	x	1.7	-5%	3.9	x
O=C(NCCC1=CCCCC1)c1cc(-c2ccccn2)nc2ccccc12	2	-23	14	4.3	-0.1	-1%	-0.1	23
O=C(Nc1ccc(F)cc1)Nc1sccc1-c1nc2ccccc2s1	17	0.9	2	6.1	0.7	x	6.1	-4
S=C(Nc1cccc(Cl)c1)N(CCCN1CCCC1)Cc1cccn1Cc1ccc(Cl)cc1	20	9.2	-5	5.3	-0.1	x	2.4	53
O=C(c1ccccc1)N1CCCC(c2nc3c(nnn3Cc3ccccc3)c(=O)[nH]2)C1 (stereo not given)	-4	x	-18	0.1	0.2	7%	5.4	-2
CCOC(=O)C1(C)NC(c2ccc(N(C)C)cc2)C2C(=O)N(CC)C(=O)C21 (stereo not given)	-1	x	-8	-1.6	0.1	10%	3.2	-12
c1nc(Nc2ccc(N3CCOCC3)cc2)c2ccsc2n1	-2	5.3	-9	u	-0.2	15%	5.8	11
CC(=O)N1c2ccc(S(=O)(=O)N3CCC(C(=O)Nc4cc(C)cc(C)c4)CC3)cc2CC1C (stereo not given)	7	-11	27	-0.4	-0.6	x	-0.1	15
O=C(Cn1nc(-c2ccc(F)cc2)ccc1=O)Nc1ccc(C(=O)NC2CC2)cc1	-2	x	3	-5.4	0.4	21%	-1.7	5
CCc1ccc(C(=O)COC(=O)[C@@H](NC(N)=O)[C@@H](C)CC)cc1	-1	-0.1	-10	1.4	0.0	-13%	-13	1
CC12CCC(=O)N1C(C(=O)OCC(=O)Nc1ccc(S(N)(=O)=O)cc1)CS2 (stereo not given)	-6	x	-1	-0.7	-0.4	11%	-2.4	-3
O=S(=O)(Nc1cccc(-c2cn3cccnc3n2)c1)c1ccccc1	-4	x	18	-2.0	0.0	x	3.6	2
CCCCNC(=O)c1ccc2c(OCC)n(CCCC)nc2c1	2	1.8	-5	-0.3	1.8	7%	1.2	-2
CCc1cc2c(nc1CC)CCN(CC/C(C)=N/O[C@@H](C)c1cc(-c3c(C)cc(C)cc3C)no1)C2	47	x	-29	5.1	0.6	4%	3.5	45
CCN(CC(=O)Nc1c(F)cccc1F)C(=O)CCOc1ccccc1	0	-14	-3	u	-0.3	2%	-2.6	6
CN1CCN(Cc2nc(Cc3ccccc3)no2)CC1c1ccccc1 (stereo not given)	-2	2.9	-24	2.8	0.0	u	4.9	4
COc1cccc(C(=O)C2CCCN(Cc3c(C)n(C)n(-c4ccccc4)c3=O)C2)c1 (stereo not given)	5	2.4	3	-2.2	-0.8	30%	1.7	-16
COCc1[nH][nH]c(=O)c1/C=N/N1CCOCC1	-1	-1.6	4	-1.0	0.7	1%	4.5	-10
COCc1c(C(=O)N2CCN(c3ccccc3C)CC2)oc2ccccc12	-7	-1.1	x	x	0.0	x	-1.8	x
COc1ccccc1CNC(=O)[C@@H]1CCCN1S(=O)(=O)c1ccc(C)cc1	-3	-2.8	-12	3.2	0.0	1%	1.5	-10
Cn1cc(C(=O)C(=O)N2CCN(c3ccccc3)CC2)c2ccccc21	4	-0.8	-10	-1.6	0.7	1%	-3.8	-9
Brc1ccc(-c2nc(-c3ccncc3)no2)o1	6	x	-20	-4.6	-6.2	-10%	1.7	-22
COCCOC(=O)C1=C(C)NC(=S)NC1/C=C/c1ccccc1 (stereo not given)	3	x	9	2.5	-1.0	x	-1.1	-42
Cc1csc(NC(=O)COc2ccc3c(C)cc(=O)oc3c2)n1	-5	0.4	17	-2.1	-4.6	-14%	1.3	6

Part of the list above, limited to A1 inh:
SMILES,A1 inh
COCc1c(C(=O)N2CCN(c3ccccc3C)CC2)oc2ccccc12,0.0
O=S(=O)(Nc1cccc(-c2cn3cccnc3n2)c1)c1ccccc1,0.0

Screening data: PubChem BioAssay, several laboratories
